Source: PubChem
KCNQ2 inh = KCNQ2 channel blockers in CHO-K1 cells – cell-based, FluxOR thallium flux, B-score, primary screen (AID 2156); 20 min; stronger effect = lower value; only compounds with negative scores are shown here; some inactives read as strong as hits; B-score at 10 µM; hit rate 1.1% among 310,000;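 active = fluorescence ratio B-score at most minus 3 library SDs, with starting brightness B-score within 2 library SDs, cut at about -5.5 in these data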
Target sequence (O88943 whole entry, looked up): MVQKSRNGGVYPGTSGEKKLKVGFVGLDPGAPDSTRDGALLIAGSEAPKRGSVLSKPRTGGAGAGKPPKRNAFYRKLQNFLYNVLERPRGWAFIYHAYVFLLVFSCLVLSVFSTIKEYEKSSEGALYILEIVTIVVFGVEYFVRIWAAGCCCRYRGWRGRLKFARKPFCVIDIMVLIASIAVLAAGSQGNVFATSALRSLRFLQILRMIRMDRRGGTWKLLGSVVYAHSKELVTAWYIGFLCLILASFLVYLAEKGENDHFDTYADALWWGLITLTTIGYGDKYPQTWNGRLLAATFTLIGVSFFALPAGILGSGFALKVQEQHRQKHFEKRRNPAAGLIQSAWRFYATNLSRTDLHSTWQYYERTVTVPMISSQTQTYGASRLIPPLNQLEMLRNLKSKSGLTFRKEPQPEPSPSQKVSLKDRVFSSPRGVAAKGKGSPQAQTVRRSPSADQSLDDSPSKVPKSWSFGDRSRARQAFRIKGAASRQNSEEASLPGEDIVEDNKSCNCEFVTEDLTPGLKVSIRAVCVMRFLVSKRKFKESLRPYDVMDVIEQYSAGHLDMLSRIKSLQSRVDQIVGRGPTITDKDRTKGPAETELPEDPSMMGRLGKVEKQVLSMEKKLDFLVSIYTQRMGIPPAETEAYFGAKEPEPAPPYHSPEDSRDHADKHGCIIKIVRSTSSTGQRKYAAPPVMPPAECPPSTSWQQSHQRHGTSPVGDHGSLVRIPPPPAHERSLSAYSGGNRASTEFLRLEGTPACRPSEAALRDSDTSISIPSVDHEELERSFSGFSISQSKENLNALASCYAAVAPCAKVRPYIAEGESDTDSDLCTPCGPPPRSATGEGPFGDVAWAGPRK
KCNQ2 inh baseline = recorded beside KCNQ2 inh, whose call it bears; B-score; measured here: initial fluorescence intensity artifact check;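 brightness before thallium and not channel activity; 0 = typical well and far values either way flag optical interference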
Active calls of the source: *; i = inactive; & = joins results of further samples. An excerpt; rates above refer to the full screens.

SMILES | KCNQ2 inh | KCNQ2 inh baseline
O=C(COc1cccc(C(F)(F)F)c1)NNC(=O)Cn1c(=O)cnc2ccccc21 | i | -1.29
COc1ccccc1N1CCN(S(=O)(=O)c2ccccc2)CC1 | i | 0.64
COc1cc(C(=O)Nc2ccc(N3CCOCC3)cc2)ccc1OCc1c(C)noc1C | i | 0.99
Clc1cc(Br)ccc1OCCOCCOc1cccc2cccnc12 | i | 0.15
CCn1cc(C(=O)N2CC(C)CC(C)C2)c(=O)c2cc(S(=O)(=O)N3CCCC3)ccc21 (configuration not stated) | i | -0.01
Cn1c(C(=O)N2CCCC(Nc3ccc(F)cc3)C2)cc2ccccc21 (configuration not stated) | i | -0.72
Clc1cc(Br)ccc1OCCCNCc1ccccc1 | i | 0.56
COc1ccc(CC(=O)N(c2ccccc2)c2nc(C)cs2)cc1 | i | -0.01
N#C/C(=C/c1ccc(OCc2ccccc2)cc1)C(=O)NC1CCCCC1 | i | 0.57
O=C(Cn1nnc(-c2cccs2)n1)N1CCOCC1 | i | -0.02
CN(C(=O)C1CCN(S(=O)(=O)c2cccs2)CC1)C1CCCCC1 | i | 1.08
CCn1c(CSc2nc3ccccc3[nH]2)nc2cc(C(=O)O)ccc21 | i | 1.25
O=C(c1cc(Br)c(Br)s1)N1CCN(c2ccccn2)CC1 | i | -0.02
Nc1nc(SCC(=O)N2N=C3/C(=C/c4ccco4)CCCC3C2c2ccco2)n[nH]1 (configuration not stated) | i | -1.04
CCn1c(Oc2ccccc2)nc2c1c(=O)n(C)c(=O)n2C | i | -0.01
CCOc1ccc(C(=O)Nc2ccccc2NC(C)=O)cc1OCC | i | 0.29
CCN(C(C)=O)c1nnc(CSc2nc3ccccc3s2)s1 | i | 0.65
Cn1nc(C(=O)NCc2ccccc2)c2c1-c1ccccc1S(=O)(=O)C2 | i | -2.5
CC(C)C(NC(=O)c1ccccc1Br)c1ccccc1 (configuration not stated) | i | -0.09
Cc1ccc(C)c(OCCn2cc(/C=C(/C#N)C(=O)NCC3CCCO3)c3ccccc32)c1 (configuration not stated) | i | -0.19
CCCCNC(=O)CNC(=S)N(CCCN1CCOCC1)Cc1cccs1 | i | 0.52
O=C(COc1ccc(Br)cc1)Nc1ccccc1N1CCCC1 | i | 0.14
CCCCOc1ccc(C(=O)OCC(=O)NC2CCCC2)cc1 | i | 1.81
Cc1cc(C(=O)N2CCN(C(c3ccccc3)c3ccccc3)CC2)no1 | i | 0.28
CC(Oc1ccccc1)C(=O)N1CCc2ccccc2C1 (configuration not stated) | i | -1.08
CCCn1c(/C=C/c2ccccc2)nc2ccccc21 | -6.13* | -0.62*
CNC(=S)NCCc1ccccc1 | i | -0.84
Cc1c(Cl)c(=O)oc2cc(OC(C)C)ccc12 | i | 0.95
CCCCCCCCN1[C@@H](CC(=O)OCC)c2ccc(C(F)(F)F)cc2S1(=O)=O | i | -0.17
COCc1c(C(=O)OCC(=O)NCCN2C(=O)CSC2=O)oc2ccccc12 | i | -0.43
CN(C)CCn1cnc2c1c(=O)n(C)c(=O)n2C | i | 0.25
CCC(C)NC(=O)CS(=O)Cc1nc(-c2cccc(OC)c2)oc1C (configuration not stated) | i | 0.74
CC(=O)c1c(C)[nH]c(C(=O)NCc2ccccc2Cl)c1C | i | -1.96
C(=N\N1CCN(Cc2cccc3ccccc23)CC1)/c1ccco1 | i | 2.13
O=C(NCC1CCCO1)C(C(=O)c1ccccc1)n1ccccc1=O (configuration not stated) | i | -0.54
COc1ccc(OC)c(C(c2nnnn2CCc2ccccc2)N2CCC(C(N)=O)CC2)c1 (configuration not stated) | i | 0.46
COCCNC(=O)C(c1ccc(F)cc1)N(C(=O)CCC(=O)Nc1nccs1)c1ccc(C)cc1 (configuration not stated) | i | 0.79
COc1ccc(OC)c(NC2c3ccccc3C(=O)N2c2cccnc2)c1 (configuration not stated) | i | 1
COC(=O)c1ccccc1NS(=O)(=O)c1c(C)noc1C | i | -1.45
Cc1cc(C)c(S(=O)(=O)NCCn2c(C)cc3ccccc32)c(C)c1 | i | -2.53
O=C(N/N=C/c1sc(N2CCCCC2)nc1-c1cccs1)c1cccnc1 | i | -0.47
COc1ccc(N(CC(=O)Nc2c(C)n(C)n(-c3ccccc3)c2=O)S(=O)(=O)c2ccccc2)cc1OC | i | 1.01
CCCCNC(=O)c1cc2nc(-c3ccccc3)cc(C(F)(F)F)n2n1 | i | -0.07
Cc1ccc(NC(=O)c2cc3c(CO)cnc(C)c3oc2=Nc2cccc(C(N)=O)c2)cc1 | i | -0.28
CC(C)Oc1ccc(C(=O)Nc2ccccc2N2CCOCC2)cc1 | i | -0.84
CCOc1ccc(NC(=O)CSc2nnc(C(C)C)n2CC)cc1 | i | -2.14
Cc1ccc(S(=O)(=O)N(C)CCCC(=O)N2CCOCC2)cc1 | i | 0.02
CC(C)(C)c1ccc(NC(=O)COc2ccc(-n3ccnc3)cc2)cc1 | i | 1.09
O=C(Nc1ccc(OC(F)F)cc1)Nc1cccc(C(F)(F)F)c1 | i | 1.18
CN(C)c1ccc(-c2noc(C3CCN(S(=O)(=O)c4ccc(C(=O)O)cc4)CC3)n2)cc1 | i | 0.17
CC1Cc2cc(S(=O)(=O)N3CCC(C(=O)N4CCCCC4)CC3)ccc2N1C(=O)C1CC1 (configuration not stated) | i | -0.47
CCOc1ccc(C(=O)NCC2CCCN2S(=O)(=O)c2cccs2)cc1 (configuration not stated) | i | -0.24
O=C(Nc1ccccn1)C1(c2cccs2)CCOCC1 | i | -0.07
COc1cc(CN(C(=O)c2ccco2)c2ccc(C)cc2)ccc1O | i | 1.03
CCC1CCCCN1Cc1cc(OC)c(O)c([N+](=O)[O-])c1 (configuration not stated) | i | -1.23
O=C(O)c1ccc(N2CCCCS2(=O)=O)cc1 | i | 1.89
O=c1[nH]c(=O)n(Cc2ccccc2)c2nc(-c3ccc(Oc4ccc(F)cc4)c([N+](=O)[O-])c3)n(CCO)c12 | i | 0.02
CC(=O)Nc1ccc(S(=O)(=O)N(C)CC(=O)OCC(=O)N(C)C2CCS(=O)(=O)C2)cc1 (configuration not stated) | i | -0.08
CC(C)c1c(O)nc(SCCC(=O)O)[nH]c1=O | i | 0.04
Cc1ccccc1NC(=O)n1ncc2cc(Cl)ccc21 | i | 1.75

Fetched by structure from the list above:
SMILES | KCNQ2 inh | KCNQ2 inh baseline
CC(C)C(NC(=O)c1ccccc1Br)c1ccccc1 (configuration not stated) | i | -0.09
N#C/C(=C/c1ccc(OCc2ccccc2)cc1)C(=O)NC1CCCCC1 | i | 0.57
COc1cc(CN(C(=O)c2ccco2)c2ccc(C)cc2)ccc1O | i | 1.03
CCCn1c(/C=C/c2ccccc2)nc2ccccc21 | -6.13* | -0.62*
CN(C)c1ccc(-c2noc(C3CCN(S(=O)(=O)c4ccc(C(=O)O)cc4)CC3)n2)cc1 | i | 0.17

(more compounds)
SMILES | KCNQ2 inh | KCNQ2 inh baseline
Cc1ccccc1C(=O)NC(=S)NCc1cccnc1 | i | 0.44
COc1ccccc1CNc1ncccc1[N+](=O)[O-] | i | 1.28
CCc1ccc(NC(=O)c2ccc(OC)c([N+](=O)[O-])c2)cc1 | i | 2.21
C=CCSc1nnc(N2C(=O)C(O)=C(C(=O)c3ccco3)C2c2ccc(F)cc2)s1 (configuration not stated) | i | 4.73
O=[N+]([O-])c1ccccc1/C=C/C=N/n1c(-c2ccco2)n[nH]c1=S | i | 0.37
Cc1cc(Cl)c(OCCCNCc2ccccc2)c(Br)c1 | i | 0.57
Cc1ccc(NC(CC(=O)c2ccccc2)c2ccc(F)cc2)cc1 (configuration not stated) | i | -0.02
Cc1cccc(C(=O)Nc2nnc(SCC(=O)Nc3ccc4c(c3)oc3ccccc34)s2)c1 | i | -0.31
O=C(CSc1ncccn1)N/N=C/c1ccc(OC2CSC2)cc1 | i | 0.82
Cc1ccc(S(=O)(=O)/N=C(\N)Nc2nc(C)c3cc(C)c(C)cc3n2)cc1 | i | 0.64
CCOc1ccc(Br)cc1S(=O)(=O)N1CCCN(C)CC1 | i | 1.73
COc1ccc(CN2CCN(Cc3cn(C)nc3-c3ccccc3)CC2CCO)c(C)c1C (configuration not stated) | i | -0.07
Cc1nc2ccccc2c(C)c1CC(=O)N(CC(C)C)c1c(N)n(Cc2ccccc2)c(=O)[nH]c1=O | i | 0.92
O=C(NCCc1ccccc1)C(=O)c1cn(CC(=O)N2CCCC2)c2ccccc12 | i | 3.45
COC(=O)Cc1ccc(NC(=S)N2CCN(C(=O)C3CCCO3)CC2)cc1 (configuration not stated) | i | -0.81
N=c1n(Cc2ccccc2Cl)c2ccccc2n1CC(O)c1ccco1 (configuration not stated) | i | -1.6
O=C(Cc1cccs1)Nc1ccccn1 | i | 0.53
Cc1ccc(S(=O)(=O)N2CCN(CCNC(=O)C(=O)NCc3ccccc3)CC2)cc1 | i | 0.19
Cc1oc(C(N)=O)cc1COc1ccc(C(N)=O)cc1 | i | -1.65
Cc1c(NC(=O)Cn2nc(C(F)(F)F)c3c2CCCC3)c(=O)n(-c2ccccc2)n1C | i | 1.91
COC(=O)c1c(-c2c(Cl)cccc2Cl)noc1NC(=O)NN1CCCCC1 | i | -0.64
COc1ccc(CCN(Cc2nc3ccccc3c(=O)[nH]2)C(=O)C2CC2)cc1 | i | 0.03
O=C(NC1CC1)c1cc2c(s1)-c1ccccc1OC2 | i | -0.74
O=C(Nc1nccs1)C1C2CC3OC(=O)C1C3C2 (configuration not stated) | i | -0.07
COc1cc(CCC(=O)OCC(=O)Nc2ccccc2F)cc(OC)c1OC | i | 1.76
Cc1ccc(-n2nc3c(c2NC(=O)c2ccco2)CS(=O)C3)c(C)c1 (configuration not stated) | i | 2.5
Cc1ccc(CN2C(=O)NC(Cc3c[nH]c4ccccc34)C2=O)cc1 (configuration not stated) | i | 0.27
O=C(/C=C/c1ccc(Cl)cc1Cl)Nc1cccc(S(=O)(=O)NC2=NCCC2)c1 | i | -1.28
CCN(CC)S(=O)(=O)c1ccc(C)c(C(=O)Oc2cccc(-c3cnc4ccccc4n3)c2)c1 | i | -0.01
Cc1cccc(-c2nnc(NC(=O)c3ccc(Cl)cc3)o2)c1 | i | 0.76
O=C(Cn1c[n+](CC(=O)c2ccc([N+](=O)[O-])cc2)cn1)c1ccc([N+](=O)[O-])cc1 | i | -1.59&-1.69
Cc1cc(C)n2cc(-c3ccc(Cl)cc3)c(C(=O)O)c2n1 | i | 1.83
O=C(N=C1c2ccccc2CN1c1ccc(F)c(Cl)c1)c1cccnc1Cl | i | -0.34
Cc1oc(-c2ccccc2Cl)nc1CS(=O)(=O)CC(=O)N1CCOCC1 | i | -0.91
COc1cccc(C(=O)NCC(=O)N2CCC3(CC2)NCCc2[nH]cnc23)c1OC | i | -0.79
CN(CCOc1ccccc1)CC(=O)Nc1ccc([N+](=O)[O-])cc1Cl | i | 1.16
Cc1cccc(NC(=S)N2CCN(S(=O)(=O)c3ccc(F)cc3)CC2)c1 | i | -1.75
O=C1NC(C(F)(F)F)(C(F)(F)F)N=C2SC=CN12 | i | -0.45
O=C(N/C(=C\c1ccc([N+](=O)[O-])cc1)C(=O)N1CCCCC1)c1ccc(Br)o1 | i | 0.02
COc1ccccc1OCCCC(=O)Nc1nccs1 | i | 0.05
CC1=NN(C(C#N)c2ccc(F)cc2)C(C)(C)C1 (configuration not stated) | i | -0.15
CCCn1c(SCC(=O)NCc2ccc(OC)cc2)n[nH]c1=O | i | -1.2
O=C(Nc1ccccc1C(=O)N/N=C/c1ccco1)c1ccccc1Cl | i | -0.83
Cc1ccc(C)c(NC(=O)Cc2nc(CNCC(C)C)cs2)c1 | i | -0.04
CC1CCCC(NC(=O)COC(=O)CN2C(=O)C3CCCCC3C2=O)C1C (configuration not stated) | i | -2.19
Cc1ccc2c(c1)C(=O)CC(O)(C(F)F)O2 (configuration not stated) | i | 0.17
CS(=O)(=O)c1ccc(Cl)c(NC(=O)Cc2c(Cl)cccc2Cl)c1 | i | 0.03
COc1ccc(C2=Nn3c([n+](C)c4ccccc43)SC2)cc1 | i | -0.2
CCOC(=O)CN1C(=O)/C(=C/c2c(F)cccc2Cl)Oc2ccccc21 | i | 0.52
CC1CN(C(=O)CSc2nnc(-c3ccncc3)n2-c2ccccc2)CC(C)O1 (configuration not stated) | i | 0.65
c1ccc2c(c1)CCCN2c1nc(N2CCOCC2)nc(N2CCOCC2)n1 | i | -0.38
O=C(OCC1CC(c2ccccc2Cl)=NO1)c1ccc(Br)cc1 (configuration not stated) | i | -0.57
CC(Oc1ccc(C(C)(C)C)cc1)C(=O)NC1CC(C)(C)NC(C)(C)C1 (configuration not stated) | i | 0.36
CCN(CC)CCCNC(=S)N1CCn2c(nc3ccccc32)C1 | i | 0.07
O=c1cc(CN2CCCCCC2)nc2sccn12 | i | 1.17
O=C(NCc1ccccc1F)c1ccc2ccccc2n1 | i | -0.07
Cc1ccc(CN2C(=O)CSC2c2ccccc2F)cc1 (configuration not stated) | i | 0.38
Cc1[nH]nc2c1C(c1cccs1)C1=C(CC(C)(C)CC1=O)N2 (configuration not stated) | i | -0.62
COc1cc(-c2nc3ccc(N4CCN(C)CC4)cc3[nH]2)cc(OC)c1OC | i | 0.02

Exported with two lines to a compound: entries from further up.
Each structure is followed by: KCNQ2 inh | KCNQ2 inh baseline
- COc1ccc(CN2CCN(Cc3cn(C)nc3-c3ccccc3)CC2CCO)c(C)c1C (configuration not stated)
→ i | -0.07
- Cc1cc(Cl)c(OCCCNCc2ccccc2)c(Br)c1
→ i | 0.57
- Cc1ccc(C)c(OCCn2cc(/C=C(/C#N)C(=O)NCC3CCCO3)c3ccccc32)c1 (configuration not stated)
→ i | -0.19
- CC(=O)Nc1ccc(S(=O)(=O)N(C)CC(=O)OCC(=O)N(C)C2CCS(=O)(=O)C2)cc1 (configuration not stated)
→ i | -0.08
- N#C/C(=C/c1ccc(OCc2ccccc2)cc1)C(=O)NC1CCCCC1
→ i | 0.57
- CCN(CC)S(=O)(=O)c1ccc(C)c(C(=O)Oc2cccc(-c3cnc4ccccc4n3)c2)c1
→ i | -0.01
